Screening data as filed in PubChem BioAssay.
Shh pathway inh: Sonic Hedgehog pathway inhibition; inhibition, % (test concentration not listed); actives 2.1% (n = 22,000); AID 2313; Shh-LIGHT2 Gli-luciferase reporter, 30 h;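 active = replicate mean of 65% or more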;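 note: pathway switched on by Shh-conditioned medium diluted 1 in 25 in low serum; 100 nL library stock added to about 40 µL; 0% = median of neutral wells and 100% = positive control level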
MITF inhib: inhibitors of MITF; TRPM1 promoter luciferase, luminescence, 24 h; inhibition, % (test concentration not listed); actives 0.28% (n = 37,000); AID 2240;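 active = most replicates at 85% or more, or half of them and the mean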;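 note: human melanocyte line stably carrying TRPM1 promoter luciferase reporter; 0% = vehicle wells and 100% = a positive control; the first replicate is given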
YB-1 expr inh: YB-1 expression inhibition | U2OS, qRT-PCR YB-1 vs CDIP delta delta Cp, 16 h; stronger effect = higher value; zero = DMSO, each unit about twofold | delta delta Cp (YB-1 minus CDIP) (concentration not given with the values) | actives 0.37% (n = 30,000) | AID 434959;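 active = delta delta Cp rounded down to an integer at or above 3, about 3 SD of DMSO wells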;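 note: higher means less YB-1 transcript or more CDIP transcript relative to DMSO; stock transfer was 100 nL into about 100 µL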
PD-1 reverse act: reversal of PD-1 mediated T-cell inhibition | 29,000 tested, under 10 active | primary human CD4 T cells, PD-L1 beads, CellTiter-Glo 96 h | activation, % (concentration not given with the values);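 active = replicate mean of 50% or more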;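 note: 0% = median vehicle wells and 100% = positive control; 100 nL library stock added to about 50 µL; numbers are from one replicate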
* marks the source's active call; other numbers are inactive results.

For Cc1noc(C)c1NC(=O)N(C)C[C@@H]1Oc2ccc(NC(=O)Nc3ccc(C(F)(F)F)cc3)cc2C(=O)N([C@@H](C)CO)C[C@H]1C the results were Shh pathway inh -17, MITF inhib -6 and YB-1 expr inh -0.22.
For Oc1cc2c(cc1O)CN(C(=S)NCCc1ccc(Cl)cc1)CCC2 the results were Shh pathway inh 36, MITF inhib 36 and YB-1 expr inh 0.37.
C[C@@H]1CN([C@@H](C)CO)C(=O)c2cc(NC(=O)Nc3ccc(F)cc3)ccc2O[C@@H]1CN(C)C(=O)Nc1ccc(F)cc1 was read as Shh pathway inh -22, MITF inhib 0, YB-1 expr inh 0.19 and PD-1 reverse act -1.4.
For O=C(NCc1ccco1)c1cnn2cccnc12 the results were MITF inhib -14 and PD-1 reverse act -0.2.
Screening O=C1C(=O)N(Cc2ccco2)C(c2ccc(Cl)cc2)C1C(=O)c1cc2ccccc2o1 (stereo not given) returned MITF inhib 9 and PD-1 reverse act -1.1.
Screening COc1ccc(S(=O)(=O)Nc2ccc3c(c2)C(=O)N([C@H](C)CO)C[C@@H](C)[C@H](CN(C)Cc2ccncc2)O3)cc1 returned Shh pathway inh -20, MITF inhib 5, YB-1 expr inh 0.21 and PD-1 reverse act 0.5.
For CC1=C(C(=O)OCc2ccccc2)C(c2ccoc2)C(C#N)=C(N)S1 (stereo not given) the results were Shh pathway inh 3, MITF inhib -3, YB-1 expr inh -0.14 and PD-1 reverse act -0.1.
Screening O=C(Oc1ccc(C2SCCS2)cc1)C1CCCCC1 returned Shh pathway inh 1, MITF inhib -27, YB-1 expr inh -0.2 and PD-1 reverse act -1.5.
Screening COc1ccccc1C1C(C(=O)c2sc(C)nc2C)C(=O)C(=O)N1CCCN1CCOCC1 (stereo not given) returned MITF inhib 13 and PD-1 reverse act 1.3.
COc1ccc(NC(=O)N(C)C[C@H]2Oc3ccc(NS(=O)(=O)c4ccc(Cl)cc4)cc3CC(=O)N([C@@H](C)CO)C[C@H]2C)cc1 was read as Shh pathway inh 67*, MITF inhib -12, YB-1 expr inh -0.16 and PD-1 reverse act 2.5.
`COc1ccc(NC(=O)Nc2cccc3c2O[C@H](CN(C)Cc2ccc4c(c2)OCO4)[C@H](C)CN([C@H](C)CO)C3=O)cc1` gave Shh pathway inh -1, MITF inhib -41, YB-1 expr inh 0.19 and PD-1 reverse act -0.1.
`CCn1c(SCC(=O)Nc2ccc3c(c2)OCCO3)nnc1-c1cccc(Cl)c1` gave MITF inhib -19 and PD-1 reverse act 1.1.
Screening C[C@H](CO)N1C[C@H](C)[C@H](CN(C)C(=O)Nc2ccc(C(F)(F)F)cc2)Oc2ccc(NC(=O)Cn3cnnn3)cc2CC1=O returned Shh pathway inh -21, MITF inhib -5 and YB-1 expr inh -0.029.
For COc1ccc(S(=O)(=O)Nc2ccc3c(c2)C(=O)N([C@H](C)CO)C[C@@H](C)[C@H](CN(C)Cc2ccc(C(F)(F)F)cc2)O3)cc1 the results were MITF inhib -5, YB-1 expr inh -1.2 and PD-1 reverse act 1.4.
Screening Cc1noc(C)c1NC(=O)N(C)C[C@H]1Oc2ccc(NS(=O)(=O)c3ccc(F)cc3)cc2CC(=O)N([C@@H](C)CO)C[C@H]1C returned Shh pathway inh 1, MITF inhib 1, YB-1 expr inh 0.53 and PD-1 reverse act 1.1.
`CC(C)NC(=O)Nc1ccc2c(c1)CC(=O)N([C@H](C)CO)C[C@@H](C)[C@@H](CN(C)C(=O)NC(C)C)O2` gave Shh pathway inh 36, MITF inhib -18, YB-1 expr inh -0.11 and PD-1 reverse act 3.4.
C[C@@H]1CN([C@H](C)CO)C(=O)c2cccc(NS(C)(=O)=O)c2O[C@H]1CN(C)Cc1ccc(Oc2ccccc2)cc1 was read as Shh pathway inh 15, MITF inhib -3, YB-1 expr inh 0.065 and PD-1 reverse act -0.4.
For COc1ccc(S(=O)(=O)N(C)C[C@@H]2Oc3ccc(NC(=O)Nc4c(C)noc4C)cc3C(=O)N([C@H](C)CO)C[C@@H]2C)cc1 the results were Shh pathway inh -6, MITF inhib -10, YB-1 expr inh 0.052 and PD-1 reverse act 1.1.
For C[C@H]1CN([C@@H](C)CO)C(=O)c2cc(NC(=O)Cc3ccccc3)ccc2O[C@@H]1CN(C)Cc1ccc(-c2ccccc2)cc1 the results were Shh pathway inh 6, MITF inhib -6, YB-1 expr inh 0.73 and PD-1 reverse act -2.5.
For COc1cccc(OC)c1C(=O)Nc1ccccc1NC(=O)c1c(OC)cccc1OC the results were Shh pathway inh -25, MITF inhib -32, YB-1 expr inh 0.17 and PD-1 reverse act 1.6.
`C[C@@H]1CN([C@@H](C)CO)C(=O)c2cccc(NS(=O)(=O)c3cn(C)cn3)c2O[C@H]1CN(C)S(=O)(=O)c1cccs1` gave Shh pathway inh -43, MITF inhib -5, YB-1 expr inh -0.16 and PD-1 reverse act 1.2.
COc1ccc(CN(C)C[C@@H]2Oc3ccc(NC(=O)C4CC4)cc3C(=O)N([C@@H](C)CO)C[C@H]2C)cc1 was read as Shh pathway inh 4, MITF inhib -2, YB-1 expr inh -0.13 and PD-1 reverse act -0.3.
For CC(C)NC(=O)N(C)C[C@@H]1Oc2c(NS(=O)(=O)c3cccs3)cccc2C(=O)N([C@H](C)CO)C[C@H]1C the results were Shh pathway inh -4, MITF inhib 2 and YB-1 expr inh 0.093.
`Cc1cc(I)ccc1NC(=O)CN(c1cc(Cl)c(Cl)cc1Cl)S(C)(=O)=O` gave MITF inhib 1 and PD-1 reverse act 1.5.
`COc1cccc(NC(=O)CSC2=C(C#N)C(c3cccc(Br)c3)CC(=O)N2)c1` (stereo not given) gave MITF inhib 10 and PD-1 reverse act 2.2.
Cc1ccc(S(=O)(=O)N(C)C[C@H]2Oc3ccc(NS(=O)(=O)c4ccc(Cl)cc4)cc3CC(=O)N([C@@H](C)CO)C[C@@H]2C)cc1 was read as Shh pathway inh -17, MITF inhib -3, YB-1 expr inh -0.066 and PD-1 reverse act 1.3.
`C[C@@H]1CN([C@H](C)CO)C(=O)c2cc(NC(=O)Nc3ccc4c(c3)OCO4)ccc2O[C@@H]1CN(C)Cc1ccc(-c2ccccc2)cc1` gave Shh pathway inh 2, MITF inhib 24 and YB-1 expr inh 0.4.
For CCOC(=O)c1sc(SC)c2c1CC(c1ccc(OC)cc1)CC2=O (stereo not given) the results were Shh pathway inh 19, MITF inhib 6, YB-1 expr inh -0.38 and PD-1 reverse act 0.2.
For COc1ccc(NC(=O)Nc2cccc3c2O[C@@H](CN(C)C(=O)Nc2ccc4c(c2)OCO4)[C@@H](C)CN([C@@H](C)CO)C3=O)cc1 the results were Shh pathway inh -19, MITF inhib -30 and YB-1 expr inh -0.13.
For CC(C)=CCC/C(C)=C/CC/C(C)=C/CSCC(=O)O the results were Shh pathway inh -19, MITF inhib 13, YB-1 expr inh 0.077 and PD-1 reverse act 5.4.

Part of the list above in order of formula weight, rising.
For CC(C)NC(=O)N(C)C[C@@H]1Oc2c(NS(=O)(=O)c3cccs3)cccc2C(=O)N([C@H](C)CO)C[C@H]1C the results were Shh pathway inh -4, MITF inhib 2 and YB-1 expr inh 0.093.
For COc1ccc(NC(=O)Nc2cccc3c2O[C@@H](CN(C)C(=O)Nc2ccc4c(c2)OCO4)[C@@H](C)CN([C@@H](C)CO)C3=O)cc1 the results were Shh pathway inh -19, MITF inhib -30 and YB-1 expr inh -0.13.
`C[C@@H]1CN([C@H](C)CO)C(=O)c2cc(NC(=O)Nc3ccc4c(c3)OCO4)ccc2O[C@@H]1CN(C)Cc1ccc(-c2ccccc2)cc1` gave Shh pathway inh 2, MITF inhib 24 and YB-1 expr inh 0.4.
Cc1ccc(S(=O)(=O)N(C)C[C@H]2Oc3ccc(NS(=O)(=O)c4ccc(Cl)cc4)cc3CC(=O)N([C@@H](C)CO)C[C@@H]2C)cc1 was read as Shh pathway inh -17, MITF inhib -3, YB-1 expr inh -0.066 and PD-1 reverse act 1.3.

(next part)
Cn1cnc2nc(NCCO)nc(NCc3ccccc3)c21 was read as Shh pathway inh 26, MITF inhib -2, YB-1 expr inh -0.27 and PD-1 reverse act 1.7.
For C[C@@H]1CN([C@@H](C)CO)C(=O)c2cccc(NS(=O)(=O)c3cn(C)cn3)c2O[C@@H]1CN(C)C the results were Shh pathway inh -56, MITF inhib -15, YB-1 expr inh -0.66 and PD-1 reverse act 2.3.
COc1ccc(OC)c(NC(=O)CSc2nnc(C)s2)c1 was read as MITF inhib -8 and PD-1 reverse act 2.3.
Screening CC(Oc1ccccc1F)C(=O)Nc1ccccc1[N+](=O)[O-] (stereo not given) returned MITF inhib -28 and PD-1 reverse act -3.9.
`C[C@H]1CN([C@@H](C)CO)C(=O)c2cccc(NS(=O)(=O)c3ccccc3)c2O[C@H]1CN(C)C(=O)NC1CCCCC1` gave Shh pathway inh -4, MITF inhib -2, YB-1 expr inh -0.23 and PD-1 reverse act -0.2.
Screening COc1ccc(CN(C)C[C@@H]2Oc3ccc(NS(=O)(=O)c4c(C)noc4C)cc3C(=O)N([C@@H](C)CO)C[C@H]2C)cc1 returned Shh pathway inh 8, MITF inhib 5, YB-1 expr inh 0.29 and PD-1 reverse act 0.1.
For COc1ccc(S(=O)(=O)Nc2ccc3c(c2)C(=O)N([C@@H](C)CO)C[C@H](C)[C@@H](CN(C)Cc2ccccc2)O3)cc1 the results were MITF inhib 7 and YB-1 expr inh 0.047.
`COc1cccc(-c2cc(=O)c3ccccc3o2)c1N` gave Shh pathway inh -122, MITF inhib -16, YB-1 expr inh -0.5 and PD-1 reverse act 0.1.
For C[C@H]1CN([C@@H](C)CO)C(=O)Cc2cc(NS(=O)(=O)c3ccc(F)cc3)ccc2O[C@H]1CN(C)Cc1ccc(C(F)(F)F)cc1 the results were Shh pathway inh 30, MITF inhib -2 and YB-1 expr inh 0.24.
`COc1ccc(S(=O)(=O)N(C)C[C@H]2OCCCC[C@@H](C)Oc3ccc(NC(=O)c4ccncc4)cc3C(=O)N([C@H](C)CO)C[C@@H]2C)cc1` gave Shh pathway inh -43, MITF inhib -9 and YB-1 expr inh -0.13.

Not a retest: an excerpt of the list.
Cn1cnc2nc(NCCO)nc(NCc3ccccc3)c21 was read as Shh pathway inh 26, MITF inhib -2, YB-1 expr inh -0.27 and PD-1 reverse act 1.7.
For C[C@@H]1CN([C@@H](C)CO)C(=O)c2cccc(NS(=O)(=O)c3cn(C)cn3)c2O[C@@H]1CN(C)C the results were Shh pathway inh -56, MITF inhib -15, YB-1 expr inh -0.66 and PD-1 reverse act 2.3.

Additional entries follow.
`COc1ccccc1NC(=O)c1ccc(NC(=O)C2COc3ccccc3O2)cc1` (stereo not given) gave MITF inhib -9 and PD-1 reverse act 0.4.
Screening C[C@]12CCC(=O)C=C1CCC1C2[C@@H](O)C[C@@]2(C)C1CC[C@]2(O)C(=O)COC(=O)CCC(=O)O (stereo not given in full) returned Shh pathway inh 28, MITF inhib -27 and YB-1 expr inh 0.027.
Screening C[C@H]1CN([C@@H](C)CO)C(=O)c2cc(NC(=O)C3CC3)ccc2O[C@H]1CN(C)S(=O)(=O)c1ccc(F)cc1 returned Shh pathway inh 12, MITF inhib 1, YB-1 expr inh -0.4 and PD-1 reverse act -1.7.
`COc1ccc(OC)c(S(=O)(=O)N(C)CC(=O)Nc2ccc3c(c2)OCCO3)c1` gave MITF inhib -1 and PD-1 reverse act 0.1.
Screening C[C@@H]1CN([C@H](C)CO)C(=O)Cc2cc(NS(=O)(=O)c3cccs3)ccc2O[C@H]1CN(C)CC1CC1 returned Shh pathway inh -10, MITF inhib -15, YB-1 expr inh 0.38 and PD-1 reverse act 1.9.
C[C@@H]1CN([C@H](C)CO)C(=O)c2cccc(NS(C)(=O)=O)c2O[C@@H]1CN(C)C(=O)NC1CCCCC1 was read as Shh pathway inh 18, MITF inhib -5, YB-1 expr inh 0.11 and PD-1 reverse act 1.5.
`O=C1C[C@@H](c2ccc(O)cc2)Oc2cc(O)cc(O)c21` gave Shh pathway inh -9, MITF inhib -72 and YB-1 expr inh -0.06.
For C[C@@H]1CN([C@@H](C)CO)C(=O)c2cc(NS(C)(=O)=O)ccc2O[C@H]1CN(C)Cc1ccc(Oc2ccccc2)cc1 the results were Shh pathway inh 45, MITF inhib 2, YB-1 expr inh -0.33 and PD-1 reverse act -2.2.
For Cc1noc(C)c1S(=O)(=O)Nc1ccc2c(c1)C(=O)N([C@H](C)CO)C[C@H](C)[C@H](CN(C)S(=O)(=O)c1cccs1)OCCCC[C@@H](C)O2 the results were MITF inhib 1, YB-1 expr inh -0.57 and PD-1 reverse act -1.5.
`COc1ccc(CCN=C2SCC(=O)N2Cc2ccccc2)cc1OC` gave Shh pathway inh 13, MITF inhib 16, YB-1 expr inh -0.049 and PD-1 reverse act -0.5.
For C[C@H]1CN([C@@H](C)CO)C(=O)Cc2cc(NC(=O)Nc3ccccc3)ccc2O[C@@H]1CN(C)Cc1ccc(C(=O)O)cc1 the results were Shh pathway inh -27, MITF inhib 3, YB-1 expr inh 0.46 and PD-1 reverse act 0.2.
CC1=CC(=O)OC1Cc1ccc2ccccc2n1 (stereo not given) was read as MITF inhib -13, YB-1 expr inh 0.1 and PD-1 reverse act -0.4.
Screening O=C(CSc1nnc2scc(-c3ccccc3)n12)Nc1nsc(-c2ccc(Cl)cc2)n1 returned MITF inhib 47 and PD-1 reverse act 0.6.
Cc1noc(C)c1NC(=O)N(C)C[C@@H]1Oc2ccc(NC(=O)C3CC3)cc2C(=O)N([C@@H](C)CO)C[C@@H]1C was read as Shh pathway inh -17, MITF inhib -3, YB-1 expr inh -0.84 and PD-1 reverse act 0.9.

Some of the compounds tested; count on the stated rates, not on these rows.
